Rango complex inh – prevents formation of the Rango-importin beta complex. Q14974. Rango CFP/YFP FRET sensor + importin beta, 45 min. Potency, µM (top dose mostly 92.2 µM), for the others: at the highest dose inhibition of complex formation. 340,000 tested, 0.031% active. AID 540263; active = rising FRET ratio curve, often small or poorly fitted; inconclusive = mostly compound fluorescence or quenching in the first reads; inactive = flat curves in all reads;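 also: potency is read from the fitted curve at half-maximal effect; 0% = DMSO wells and 100% = buffer wells lacking importin beta; nearly all actives have a fitted effect of over 15% in size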
Target sequence (Q14974 whole entry, looked up): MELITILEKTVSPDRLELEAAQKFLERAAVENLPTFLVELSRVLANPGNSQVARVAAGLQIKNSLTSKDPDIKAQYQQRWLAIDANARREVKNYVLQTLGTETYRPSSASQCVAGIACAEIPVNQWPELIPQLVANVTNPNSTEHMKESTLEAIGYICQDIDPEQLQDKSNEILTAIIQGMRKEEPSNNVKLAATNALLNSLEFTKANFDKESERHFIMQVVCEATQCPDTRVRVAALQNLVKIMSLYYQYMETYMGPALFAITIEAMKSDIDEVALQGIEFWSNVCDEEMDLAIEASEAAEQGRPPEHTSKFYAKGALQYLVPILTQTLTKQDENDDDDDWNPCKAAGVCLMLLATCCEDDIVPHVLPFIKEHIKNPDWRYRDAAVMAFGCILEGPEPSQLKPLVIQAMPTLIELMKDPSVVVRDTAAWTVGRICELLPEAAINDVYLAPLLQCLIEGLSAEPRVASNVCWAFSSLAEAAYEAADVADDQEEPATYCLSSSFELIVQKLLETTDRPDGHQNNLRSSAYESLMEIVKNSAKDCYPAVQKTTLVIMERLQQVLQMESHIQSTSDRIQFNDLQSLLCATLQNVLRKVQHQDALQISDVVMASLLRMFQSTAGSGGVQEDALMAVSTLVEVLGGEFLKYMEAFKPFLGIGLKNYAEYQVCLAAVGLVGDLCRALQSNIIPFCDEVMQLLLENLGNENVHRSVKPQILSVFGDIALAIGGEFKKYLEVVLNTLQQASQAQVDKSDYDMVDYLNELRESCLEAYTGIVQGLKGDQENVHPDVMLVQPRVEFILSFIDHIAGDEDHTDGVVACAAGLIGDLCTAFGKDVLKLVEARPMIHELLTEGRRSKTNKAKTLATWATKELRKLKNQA
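FRET biosensor (snurportin 1 IBB flanked by EYFP and cerulean), 50 nM, with compound 5 min, then 0.125 microM importin beta in PBS, 1 mM DTT, 0.02% Tween-20, 0.1% BSA. CFP/YFP ratio read after 45 min at room temperature; pre-read flags interference.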
miR-21 reporter – raises the signal of a miR-21 reporter | 340,000 tested, under 10 active | HeLa miR-21 FLuc reporter, luciferase, 48 h | Potency, µM (top dose mostly 38.3 µM), without a hit: top-dose reporter change, positive = more light; active = well fitted rising curve with a large enough effect; inconclusive = small, poorly fitted or top-dose-only effect; inactive = no such curve, though single readings can be large or run the other way;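 also: % of control where 0% means no effect; miR-21 action dims this reporter so a rising signal means less miR-21 action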
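HeLa cells endogenously expressing miR-21, stably carrying CMV-driven firefly luciferase with a downstream miR-21 binding site, 2000 cells/well. Titrations up to approximately 40 uM, 48 hours; luciferase luminescence read.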
GLA inh pH 4.5 – alpha-galactosidase A (human) inhibition, pH 4.5; P06280; purified enzyme, 4-MU-alpha-Gal fluorescence, pH 4.5; activity change, negative = inhibition, % at 105 µM; 230,000 tested, under 10 active; inconclusive = small, poorly fitted or top-dose-only inhibition, or a rising curve; inactive = flat fitted curve, though single readings scatter; no compound was filed as active;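 also: 0% = full activity with enzyme and -100% = basal without enzyme; dose as in the result columns while the protocol names 77 µM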
Rango dissoc inh – prevents RanGTP from dissociating the Rango-importin beta complex | 340,000 tested, 0.071% active | Biochemical FRET Rango-importin beta, RanGTP-induced dissociation | Potency, µM (titrated, usually from 46.1 µM), for inactives: at the highest dose activity change, negative = inhibition; active means falling FRET ratio curve, often poorly fitted, with flat reads before Ran was added; inconclusive means other falling curves, or compound fluorescence or quenching; inactive means flat or rising ratio curve;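 also: potency is read from the fitted curve at half-maximal effect; % of control where 0% means no effect; nearly all actives have a fitted effect of over 45% in size; -100% = wells without RanGTP and RCC1; the record marks most hits as doubtful in a second field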
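Rango FRET biosensor (snurportin-1 IBB flanked by N-terminal EYFP and C-terminal CFP10) at 0.1 uM, with 0.25 uM importin beta in PBS, 1mM DTT, 0.02% Tween-20, 0.1% BSA. 0.6 uM Ran, 2mM GTP and 0.2 uM RCC1 were then added for 45 min at room temperature. Inhibition read as loss of FRET rise.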
* marks the source's active call; other numbers are inactive results; & = joins results of further samples. An excerpt, so the mix of outcomes need not match the whole.

Results for CC(=O)N1c2ccc(S(=O)(=O)NCCC(=O)N3CCC(C)CC3)cc2CC1C (configuration not stated) ?
Rango complex inh: 1.2%; miR-21 reporter: 3%; Rango dissoc inh: -2%

How did O=C(C[C@H]1C/C=C\C[C@@H](Cc2ccc(F)cc2)C(=O)OC[C@H]2CCCN2C1=O)NCCO do in these assays?
Rango complex inh: -5.3%; Rango dissoc inh: -17%

What do the screens show for `COc1cccc(NC(=O)CSc2nc(C)cs2)c1`?
Rango complex inh: 3.2%; miR-21 reporter: -13%; GLA inh pH 4.5: 11; Rango dissoc inh: -10%

Results for S=c1[nH]nc(C2CC2)n1Cc1ccco1 ?
Rango complex inh: -2.5%; miR-21 reporter: 0%; GLA inh pH 4.5: -2; Rango dissoc inh: -3%

Results for Cc1cc(O)c2c(C)c(CC(=O)N3CCN(C(=O)C4COc5ccccc5O4)CC3)c(=O)oc2c1 (configuration not stated) ?
Rango complex inh: -1.2%; miR-21 reporter: 10%; Rango dissoc inh: -16%

Results for CC1c2ccsc2CCN1S(=O)(=O)c1ccccc1 (configuration not stated) ?
Rango complex inh: 2.7%; miR-21 reporter: -8%; GLA inh pH 4.5: -3; Rango dissoc inh: 12%

What do the screens show for `Cc1nc(SCc2nc3ccc(Br)cc3[nH]2)c2oc3ccccc3c2n1`?
Rango complex inh: inconclusive; Rango dissoc inh: -3%

What do the screens show for `S=C(Nc1ccccc1)N1CCn2c(nc3ccccc32)C1`?
Rango complex inh: 0.8%; miR-21 reporter: 3%; GLA inh pH 4.5: -14; Rango dissoc inh: -4%

Results for CCNC(=S)NNC(=O)CSc1nc2ccccc2[nH]1 ?
Rango complex inh: 5.0%; miR-21 reporter: -15%; GLA inh pH 4.5: -3; Rango dissoc inh: inconclusive

Results for CCCC1(CCC)C(=O)NC(=NCCc2ccc(OC)c(OC)c2)NC1=O ?
Rango complex inh: -1.8%; miR-21 reporter: 4%; GLA inh pH 4.5: -3; Rango dissoc inh: -1%

What do the screens show for `CCc1ccc(NC(=O)c2cc(Br)ccc2Br)cc1`?
miR-21 reporter: -18%; GLA inh pH 4.5: 6

How did Cc1ccc(S(=O)(=O)c2nc(-c3ccc(F)cc3)oc2SCC(=O)NCC2CCCO2)cc1 (configuration not stated) do in these assays?
Rango complex inh: -2.7%; miR-21 reporter: -2%; GLA inh pH 4.5: 1; Rango dissoc inh: 2%

What do the screens show for `CC1(C)NC(=O)N(CCCOc2ccc(Br)cc2Cl)C1=O`?
Rango complex inh: -0.9%; miR-21 reporter: -49%; GLA inh pH 4.5: -17; Rango dissoc inh: -8%

How did CC(=O)c1nn(-c2ccc(Cl)cc2)c(=O)[nH]c1=O do in these assays?
Rango complex inh: 0.1%; miR-21 reporter: -8%; Rango dissoc inh: -8%

What do the screens show for `O=C1CSC(=Nc2ccccc2[N+](=O)[O-])N1`?
Rango complex inh: -5.4%; miR-21 reporter: -3%; GLA inh pH 4.5: 3; Rango dissoc inh: 2%

How did O=c1cc(-c2ccccc2)nc(SCCOc2ccccc2Cl)[nH]1 do in these assays?
Rango complex inh: -0.6%; miR-21 reporter: 1%; GLA inh pH 4.5: 11; Rango dissoc inh: 8%

What do the screens show for `Cc1ccc(NC(=O)c2cccc(C(F)(F)F)c2)cc1NC(=O)c1[nH]cnc1C(N)=O`?
Rango complex inh: 3.6%; Rango dissoc inh: -7%

What do the screens show for `CC(=NO)c1ccc2c(c1)C(=NO)c1ccccc1-2`?
Rango complex inh: 2.2%; Rango dissoc inh: -4%

What do the screens show for `O=C(NCCc1csc(-c2cccnc2)n1)c1ccccc1`?
Rango complex inh: 1.5%; miR-21 reporter: -11%&-7%; GLA inh pH 4.5: -3; Rango dissoc inh: -12%

Results for Cc1nc2nc(C)c(CCC(=O)N3CCOCC3)c(C)n2n1 ?
Rango complex inh: 0.5%; miR-21 reporter: -1%; GLA inh pH 4.5: 0; Rango dissoc inh: 0%

What do the screens show for `CCCN(CC(=O)Nc1cc(Cl)cc(Cl)c1)CC(=O)Nc1ccc(F)c(F)c1F`?
Rango complex inh: -0.7%; miR-21 reporter: 26%; GLA inh pH 4.5: 6; Rango dissoc inh: -4%

How did Cc1ccc([N+](=O)[O-])cc1NC(=O)c1ccc(C(C)(C)C)cc1 do in these assays?
Rango complex inh: -1.3%; miR-21 reporter: 5%; GLA inh pH 4.5: -3; Rango dissoc inh: 12%

What do the screens show for `COc1ccc(/C=C/c2nnc(NC(=O)CC(C)C)s2)cc1`?
Rango complex inh: -4.1%; miR-21 reporter: 0%; GLA inh pH 4.5: 10; Rango dissoc inh: -1%

Results for COc1ccc(-c2[nH]ncc2CN2CCC(N3CCSCC3)CC2)c(F)c1 ?
Rango complex inh: 1.7%; miR-21 reporter: -1%; GLA inh pH 4.5: -23; Rango dissoc inh: -2%

What do the screens show for `O=C1C=C(Nc2cccc(Cl)c2)CC(c2ccco2)C1` (configuration not stated)?
Rango complex inh: -0.6%; miR-21 reporter: 13%; GLA inh pH 4.5: 9; Rango dissoc inh: 1%

Results for O=C(N/N=C/c1cccc(Cl)c1)c1c(O)c2c([nH]c1=O)CCCC2 ?
Rango complex inh: -0.9%; miR-21 reporter: -14%; GLA inh pH 4.5: -4; Rango dissoc inh: 18%

What do the screens show for `O=C(O)CC(C(=O)O)C(c1ccccc1)c1ccccc1` (configuration not stated)?
Rango complex inh: 0.4%; Rango dissoc inh: 9%

What do the screens show for `CCc1cccc(C)c1NC(=O)CSc1nc2ccccc2n1CC(=O)N(C)C`?
Rango complex inh: -2.8%; miR-21 reporter: -1%; GLA inh pH 4.5: 3; Rango dissoc inh: -21%

Results for O=C(O)c1cccnc1Br ?
Rango complex inh: 0.0%; miR-21 reporter: 2%; GLA inh pH 4.5: 11; Rango dissoc inh: 8%

What do the screens show for `Clc1cc(Cl)c(Cl)c(Cl)c1Cl`?
Rango complex inh: -2.3%; Rango dissoc inh: -8%

Results for O=S(=O)(c1ccc(NC(=S)Nc2ccc(OC(F)F)cc2)cc1)N1CCOCC1 ?
Rango complex inh: -0.6%; miR-21 reporter: 0%; GLA inh pH 4.5: -6; Rango dissoc inh: 5%

Results for O=C(CSc1nc2ccccc2o1)c1cc2ccccc2oc1=O ?
Rango complex inh: inconclusive; miR-21 reporter: -64%; GLA inh pH 4.5: 9; Rango dissoc inh: inconclusive

What do the screens show for `Cc1ccc(N(NC(=O)C(C)(C)O)C(=O)c2ccccc2)cc1C`?
Rango complex inh: 0.3%; miR-21 reporter: -3%; GLA inh pH 4.5: 2; Rango dissoc inh: -4%

Results for COc1ccc(C2/C=C\CN(S(=O)(=O)c3ccc(-c4ccccc4)cc3)CC(=O)N2Cc2ccc(F)cc2)cc1 (configuration not stated) ?
Rango complex inh: 0.1%; miR-21 reporter: -2%; GLA inh pH 4.5: -2; Rango dissoc inh: 4%

What do the screens show for `O=C(Nc1ccnn1C1CCN(Cc2cccc(OCCO)c2)CC1)C1CC1`?
Rango complex inh: -3.4%; miR-21 reporter: -2%; Rango dissoc inh: 17%

What do the screens show for `COc1ccc(C(=O)COC(=O)CNC(=O)c2ccccc2)cc1F`?
Rango complex inh: 2.6%; Rango dissoc inh: -10%

What do the screens show for `Cn1cc[nH]c1=S`?
Rango complex inh: 2.5%; miR-21 reporter: 0%; GLA inh pH 4.5: 7&5&8; Rango dissoc inh: -26%

What do the screens show for `Cc1ccc(OCc2nnc(SCC(=O)N3CCOCC3)n2C)cc1`?
Rango complex inh: 0.4%; miR-21 reporter: 0%; GLA inh pH 4.5: -10; Rango dissoc inh: 12%

How did CCC(CO)Oc1cc(NCc2ccc(Cl)cc2Cl)c2ncn(C(C)C)c2c1 (configuration not stated) do in these assays?
Rango complex inh: 0.7%; Rango dissoc inh: 4%

What do the screens show for `CCOc1cc(C(=O)NC(=S)Nc2cccnc2)cc(OCC)c1OCC`?
Rango complex inh: -2.4%; miR-21 reporter: 0%; GLA inh pH 4.5: -17; Rango dissoc inh: 2%

Results for COC(=O)c1ccc(Nc2c([N+](=O)[O-])c(=O)oc3ccccc23)cc1 ?
Rango complex inh: 6.2%; miR-21 reporter: 0%; GLA inh pH 4.5: -9; Rango dissoc inh: -2%

How did Cc1ccc2c(c1)=C(c1ccccc1)N(O)CC(=O)N=2 do in these assays?
Rango complex inh: -0.5%; miR-21 reporter: 0%; Rango dissoc inh: 11%

Results for Cc1oc(-c2ccccc2)cc1C(=O)Nc1cccc(/C=C\C(=O)O)c1 ?
Rango complex inh: -6.6%; miR-21 reporter: -15%; GLA inh pH 4.5: -2; Rango dissoc inh: -18%

Results for O=C(O)c1cc2nc3c(c(C(F)(F)F)n2n1)CCc1ccccc1-3 ?
Rango complex inh: -2.4%; miR-21 reporter: -2%; GLA inh pH 4.5: 0; Rango dissoc inh: -19%

What do the screens show for `Cc1cc(-c2ccccc2)nc(-c2ccccc2)c1C`?
Rango complex inh: -1.2%; miR-21 reporter: -61%; GLA inh pH 4.5: 7; Rango dissoc inh: -10%

What do the screens show for `COc1ccc(-n2c(C)c(C(C)=O)c(C(C)=O)c2C)cc1`?
Rango complex inh: 5.6%; miR-21 reporter: 1%; GLA inh pH 4.5: 3; Rango dissoc inh: -15%

How did O=C(N/N=C/c1ccsc1)c1cc(-c2ccncc2)nc2ccccc12 do in these assays?
Rango complex inh: 1.9%; miR-21 reporter: 14%; GLA inh pH 4.5: 6; Rango dissoc inh: 5%

What do the screens show for `COC(=O)CNC(=O)c1sc2ncn(CC(=O)Nc3ccc(C)c(Cl)c3)c(=O)c2c1C`?
Rango complex inh: -1.4%; miR-21 reporter: 5%; GLA inh pH 4.5: -5; Rango dissoc inh: -17%

Reprinted from the results shown (2 entries):
What do the screens show for `Cn1cc[nH]c1=S`?
Rango complex inh: 2.5%; miR-21 reporter: 0%; GLA inh pH 4.5: 7&5&8; Rango dissoc inh: -26%

What do the screens show for `Cc1ccc(OCc2nnc(SCC(=O)N3CCOCC3)n2C)cc1`?
Rango complex inh: 0.4%; miR-21 reporter: 0%; GLA inh pH 4.5: -10; Rango dissoc inh: 12%

(next part)
How did CCCCC(=O)c1c(C)cc(C)[nH]c1=O do in these assays?
Rango complex inh: -0.5%; miR-21 reporter: -3%; GLA inh pH 4.5: 2; Rango dissoc inh: -2%

How did COc1ccc(OC)c(N(CC(=O)Nc2cccnc2)S(C)(=O)=O)c1 do in these assays?
Rango complex inh: 0.0%; miR-21 reporter: -6%; GLA inh pH 4.5: -2; Rango dissoc inh: -1%

Results for O=C(c1ccco1)N1CCN(Cc2ccccc2Br)CC1 ?
Rango complex inh: 3.9%; miR-21 reporter: -55%; Rango dissoc inh: 2%

What do the screens show for `N#CC(C#N)=C(Nc1ccccc1)c1ccccc1`?
Rango complex inh: -3.2%; miR-21 reporter: -6%; GLA inh pH 4.5: -3; Rango dissoc inh: -4%

Results for CC(C)Cn1c(SCC(=O)Nc2cc(Cl)c(Cl)cc2Cl)nc(O)cc1=O ?
Rango complex inh: inconclusive; Rango dissoc inh: 10%

What do the screens show for `CCc1ccc(NC(=O)C(C)OC(=O)CCC(=O)c2cccs2)cc1` (configuration not stated)?
Rango complex inh: -3.4%; miR-21 reporter: -14%; GLA inh pH 4.5: -3; Rango dissoc inh: 4%

Results for CC(=O)Oc1ccc2ccc3ccc(C(C)=O)cc3c2c1 ?
Rango complex inh: -0.3%; Rango dissoc inh: 1%

What do the screens show for `COc1ccc(C(=O)Nc2nc(C)cs2)cc1S(=O)(=O)N1CCCC1`?
Rango complex inh: -4.0%; miR-21 reporter: 3%; GLA inh pH 4.5: 0; Rango dissoc inh: -20%

How did CCOC(=O)c1sc(Nc2ccc(F)cc2)nc1C do in these assays?
Rango complex inh: -1.3%; miR-21 reporter: -34%; GLA inh pH 4.5: -3; Rango dissoc inh: 24%

What do the screens show for `CC(=O)c1ccc(OCCCC(=O)Nc2cc(S(=O)(=O)N3CCCCC3)ccc2C)cc1`?
Rango complex inh: 0.1%; Rango dissoc inh: -1%

How did CCCNC(=O)CSc1nccn1Cc1ccc(OC)cc1 do in these assays?
Rango complex inh: 1.2%; miR-21 reporter: -3%; GLA inh pH 4.5: -6; Rango dissoc inh: 14%

Results for Cc1ccc(C)c(NC(=O)CN(C)C(=O)CC2OC(=O)c3ccccc32)c1 (configuration not stated) ?
Rango complex inh: -2.3%; Rango dissoc inh: 7%
